# Screens as filed in PubChem.
# HCMV UL50-53 inh – inhibitors of HCMV UL50-UL53 interaction, biochemical, HTRF; inhibition, % (test concentration not listed); 190,000 tested, 0.15% active; normalized percent inhibition;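 active means both replicates at 50% or more, plus weaker picks with an unusually low signal ratio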;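 further: stock transfer was 100 nL into about 20 µL; 0% = negative control wells and 100% = wells with untagged competitor protein; inactives centre near -12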
# GIV-Gai inh – inhibitors of GIV peptide binding to Galpha-i3, primary screen, biochemical, fluorescence polarization, FITC-GIV GBA peptide, rat Galphai3; percent of control (FP), % (concentration not given with the values); Guanine nucleotide-binding protein G(i) subunit alpha-3 (Rattus norvegicus), P08753; 90 min; hits give low values; scaled: aluminum fluoride 0%, vehicle 100%; 210,000 tested, 0.42% active;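 active means replicate mean at 85% of control or lower, very high polarization wells dropped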;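 further: wells of about 15 µL received 100 nL stock; the first replicate is given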
# Target sequence (P08753 whole entry, looked up): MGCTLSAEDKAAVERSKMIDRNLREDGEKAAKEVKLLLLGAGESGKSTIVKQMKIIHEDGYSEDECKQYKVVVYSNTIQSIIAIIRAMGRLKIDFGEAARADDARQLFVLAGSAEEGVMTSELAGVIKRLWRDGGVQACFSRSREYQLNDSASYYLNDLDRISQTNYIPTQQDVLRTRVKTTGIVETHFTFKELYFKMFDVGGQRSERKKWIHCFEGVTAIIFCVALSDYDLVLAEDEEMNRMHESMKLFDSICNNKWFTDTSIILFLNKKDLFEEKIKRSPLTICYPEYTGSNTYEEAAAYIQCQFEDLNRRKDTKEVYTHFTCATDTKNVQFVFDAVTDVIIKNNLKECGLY
# Sa growth inh – S. aureus growth inhibition at 42 and 30 °C, primary screen, LtaS inhibitor project, RN4220, two temperatures; relative growth, % (no concentration beside the values); AID 720641, 2013; 170,000 tested, 0.53% active; OD600, 20 h, 42 °C; hits give low values;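 active means growth at 42 °C up to 50% and 20 or more points under that at 30 °C, or under 10% at both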;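 further: 300 nL library stock went into each well; scaled to the means of positive and negative controls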
# Sa growth inh second temp – further read-out of Sa growth inh, marked with its call; relative growth, %; measured here: growth at 30 °C;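 optical density after 20 h as mean of two plates; 100% = untreated growth and lower means inhibition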
# Starred values were filed as active, the others as inactive; / = not tested or not shown; & = joins results of further samples.
molecule	HCMV UL50-53 inh	GIV-Gai inh	Sa growth inh	Sa growth inh second temp
CC(C)Sc1ncc(Cl)c(C(=O)Nc2ccc(S(=O)(=O)N3CCCCC3)cc2)n1	-29	102	91	83
COc1ccccc1NC(=O)CSC1=NCCS1	-2	111	83	90
COc1cccc(CNC(=O)C2CCN(c3ncnc4c3nc3n4CCCCC3)CC2)c1	/	106	82	93
COC(=O)c1ccc(NC(=O)CSc2nc(=O)cc(N)n2CCc2ccccc2)cc1	-1	/	92	71
CC1CCN(S(=O)(=O)c2nnc(NC(=O)CSc3ccc(Cl)cc3)s2)CC1	-16	107	/	/
CC1CCN(S(=O)(=O)c2ccc3c(c2)CCN3C(=O)Nc2ccccc2)CC1	-5	105	100	94
O=C(O)Cc1ccc(-n2c(-c3ccncc3)n[nH]c2=S)cc1	-13	105	101	90
C=CCn1c(Sc2c3c(nc4ncnn24)CCC3)nnc1-c1ccccc1	-28	102	87	67
Cc1cccc(CCNC(=O)c2ccc3c(c2)N(Cc2ccccc2F)C(=O)c2ccccc2S3)c1	/	104	138	103
Fc1ccc(N2CCN(Cc3cnc(-c4ccccc4)[nH]3)CC2)cc1	-10	98	84	82
O=C(O)c1ccc(CSc2nc(-c3ccccc3)cc(C(F)(F)F)n2)o1	2	100	44	56
OC(CNCc1ccc(-c2cc(Cl)ccc2Cl)o1)c1ccccc1 (stereo not given)	-11	103	/	/
CC(C)c1ccc(NC(=O)C2CCCN(S(=O)(=O)c3ccc4[nH]c(=O)ccc4c3)C2)cc1 (stereo not given)	/	111	115	88
CC(=O)NCCC(=O)N1CCc2ccccc21	-4	/	85	88
O=C(Cn1ccsc1=NC(=O)c1ccco1)c1ccccc1	-11	/	104	77
COc1ccc(S(=O)(=O)Nc2cc3c(C(=O)OC(C)C)c(C)oc3c3ccccc23)cc1	-43	109	113	92
CN(CC(O)COc1ccc(S(=O)(=O)N2CCOCC2)cc1)C1CCCCC1 (stereo not given)	1	/	94	91
NC(=O)c1cccc(N=Cc2cc(Br)ccc2O)c1	-14	101	109	107
COc1ccc(NCc2cc3ccccc3[nH]c2=O)cc1	-4	/	100	88
CCOC(=O)c1c(N)n(CCO)c2nc3ccccc3nc12	-50	/	91	94
CN(C(=O)CSc1nc2ccc(NC(=O)COc3ccc(F)cc3)cc2s1)c1ccccc1	-20	97	104	91
COc1ccc(-c2nn(-c3ccccc3)cc2C=Nc2ccc(O)cc2)cc1	-26	/	102	83
COc1ccc(OC)c(-c2cc(C(=O)NCc3ccc(Cl)cc3)no2)c1	-11	102	95	93
CCc1nc2n[nH]c(N)c2c2c1COC(C)(C)C2	-4	/	85	92
O=C(CN1C(=O)CCn2nc(-c3ccc(Cl)cc3)cc21)NCCC1=CCCCC1	-7	110	/	/
Cc1ccc(S(=O)(=O)N(CCC(N)=O)c2ccccc2)cc1	-12	/	96	100
Cc1ccc(CNC(=O)CCCc2nnc3n(CC(C)C)c(=O)c4sccc4n23)cc1	/	99	106	89
COc1ccc(NCc2nc3nc4c(c(=O)n3[nH]2)CCC4)c(OC)c1	-12	104	/	/
O=C(NN=C1CCCCC1)NC1CCCCC1	14	/	89	97
Cn1c(=O)c2c(ncn2CC(=O)Nc2cccc(Cl)c2Cl)n(C)c1=O	-16	104	97	89
Cn1c(SCc2ccc(-c3csnn3)cc2)nnc1C(F)(F)F	-4	100	96	71
CCCNc1ccccc1N	-124	/	6.7*	1.2*
CCC(Sc1nc2ncccc2o1)C(=O)NCc1ccc(C)cc1 (stereo not given)	-6	110	101	101
CCCn1cnc2scc(-c3ccccc3)c2c1=O	-8	101	115	80
CSCc1c(C(=O)OC(C)C#N)oc2ccccc12 (stereo not given)	-36	/	89	91
CC(C)C(=O)c1c(C(C)C)nn2ccccc12	-28&-2&-20	93&102	99	97
Cc1c(C)c(C)c(S(=O)(=O)N2CCCC2)c(C)c1C	1	98	96	96
COc1ccccc1-c1nn(CCC#N)c2nc(C(F)(F)F)cc(C3CC3)c12	/	105	89	73
O=C(NC1CCCCC1)C1CCC(CNS(=O)(=O)c2ccccc2)CC1 (stereo not given)	/	110	109	89
Cc1cccc(CNCc2ccc3c(c2)OCO3)c1	0	99	106	108

# Reprinted from the part before: six entries, then new ones.
molecule	HCMV UL50-53 inh	GIV-Gai inh	Sa growth inh	Sa growth inh second temp
CSCc1c(C(=O)OC(C)C#N)oc2ccccc12 (stereo not given)	-36	/	89	91
CC(C)C(=O)c1c(C(C)C)nn2ccccc12	-28&-2&-20	93&102	99	97
Cc1c(C)c(C)c(S(=O)(=O)N2CCCC2)c(C)c1C	1	98	96	96
COc1ccccc1-c1nn(CCC#N)c2nc(C(F)(F)F)cc(C3CC3)c12	/	105	89	73
O=C(NC1CCCCC1)C1CCC(CNS(=O)(=O)c2ccccc2)CC1 (stereo not given)	/	110	109	89
Cc1cccc(CNCc2ccc3c(c2)OCO3)c1	0	99	106	108
Cc1ccc(N=C2S/C(=C/c3cccc(OCC(=O)O)c3)C(=O)N2C)cc1C	/	105	84	93
COc1ccccc1OCCCn1c(C2CC(=O)N(c3ccc(F)cc3)C2)nc2ccccc21 (stereo not given)	-15	105	109	93
CN(n1cnc2ccccc2c1=O)S(C)(=O)=O	-27	107	96	94
O=C(NCc1ccc2c(c1)OCO2)c1ccc(CN2C(=O)CCn3nc(-c4cccc(Cl)c4)cc32)cc1	-17	104	/	/
Cc1nc2c([nH]1)C1(CCC(c3ccccc3)CC1)C(C#N)=C(N)O2 (stereo not given)	-14	/	95	81
COc1ccc(-c2nn(CCCC(=O)N3CCN(c4ccc(OC)cc4)CC3)c(=O)c3noc(C)c23)cc1	-27	99	/	/
COC(=O)c1ccccc1NC(=O)C1=CC(c2cccs2)=NS(=O)(=O)N1C	-22	107	115	90
COc1ccc(OC)c(NC(=O)C2CC(=O)N(CCc3ccccc3)C2)c1 (stereo not given)	-14	/	91	96
CCCN(Cc1ccco1)S(=O)(=O)c1ccc(OC)c(OC)c1	3	104	112	94
COc1cccc(N2C(=O)C(CC(=O)Nc3cccc(F)c3)N(C3CCCC3)C2=O)c1 (stereo not given)	/	104	102	93
Cc1ccc(S(N)(=O)=O)cc1C(=O)NC1CCCCC1	-11	99	91	104
CCOC(=O)c1ccc(NC(=O)c2ccc3c(c2)c(C)c(C)n3Cc2ccc(F)cc2)cc1	/	107	112	85
CCN(C(=O)CSc1nc2ccccc2n1Cc1ccc(F)cc1Cl)c1ccccc1	/	104	105	94
CC1Cc2cc(S(=O)(=O)NCCc3ccc(Cl)cc3)ccc2N1C(=O)C1CCC1 (stereo not given)	/	107	117	91
O=S1(=O)N=C(Nc2ccc(N3CCCCC3)c(Cl)c2)c2ccccc21	5	111	88	98
CCn1c(N2CCN(C(=O)Cc3ccccc3Cl)CC2)nc2ccccc21	-19	106	/	/
CCC(=O)Nc1ccc(S(=O)(=O)N(C)C2CCCCC2)cc1	-7	106	130	61
Oc1ccc(/C=N/N2CCOCC2)cc1	-13	/	105	100
O=C(Nc1c(-c2ccc(F)cc2)nc2ccccn12)C1CC1	-18	102	/	/
O=C1CCCc2[nH]c(=O)c(C(=O)Nc3ccc(Cl)cc3)cc21	0	113	94	99
CCc1nc2nc3c(c(N4CCN(c5ccccn5)CC4)n2n1)CCC3	1	110	/	/
Cc1cc(C)c(NC(=O)Cn2c(=O)n(Cc3ccc4c(c3)OCO4)c(=O)c3ccc(C(=O)NC4CCCCC4)cc32)c(C)c1	-29	105	101	96
CC(=O)Nc1ccc2c(c1)nc(CCNC(=O)C1CC1)n2C	-28	102	/	/
Cc1ccc(C(=O)c2ccc(CC(=O)O)n2C)cc1	-34&-4&-29	95	92&98	84&102
COC(=O)C1=C(C)NC2=C(C(=O)CC(c3ccc(OC)c(OC)c3)C2)C1c1ccc(OC)c(OC)c1OC (stereo not given)	-47	101	/	/
NC(=O)COc1ccc(/C=c2/sc3nc4ccccc4n3c2=O)cc1	/	101	121	82
CSc1ccc(CCNC(=O)c2cc3c(s2)-c2ccccc2S(=O)(=O)C3)cc1	/	101	106	101
Cc1ccc(C(C)C)c(OCC(=O)Nc2ccc(S(=O)(=O)Nc3onc(C)c3C)cc2)c1	30	102	76	77
Cc1ccccc1-n1c2nc(=O)[nH]c(=O)c-2cc2c(Cl)cccc21	-225	109	96	79
CNC(=O)CCc1nc(-c2cc3ccccc3[nH]c2=O)no1	-53	105	/	/
O=C(c1ccccc1)N(C(=O)c1ccccc1)c1nc2c(s1)CCCC2	4	103	/	/
O=C(COC(=O)Cc1c[nH]c2ccccc12)Nc1ccccc1C(=O)NC1CC1	-30	/	71	77
Cc1nc(CSc2n[nH]c(C(F)(F)F)n2)cs1	3	101	102	73
CCC(NC(C)=O)c1ccccc1 (stereo not given)	-24	98	91	107
Cc1ccc(C)c(N2CCN(CCCNC(=O)c3cnn(-c4ccc(F)cc4)c3C3CCN(C(=O)OC(C)(C)C)CC3)CC2)c1	/	102	131	69
CCOC(=O)c1c(NC(=O)N2CC(C)Oc3ccc(Cl)cc32)sc2c1CCCC2 (stereo not given)	1	95	/	/
C=C(C)c1cccc(C(C)(C)NC(=O)NCc2ccc(OC)cc2)c1	/	103	101	83
O=C(CSc1ncnc2c1nnn2Cc1ccccc1)Nc1ccccc1	-34	102	103	90
O=C(COc1ccc(Cl)cc1)N1CCN=C1SCc1cccnc1	8	106	94	97
CCc1nnc2sc(-c3ccc(OC)c(OC)c3)nn12	-27	99	/	/
O=c1cc(N2CCCCC2)[nH]c(=O)n1C1CCCCC1	/	103	108	86
O=C(NCc1ccccc1F)c1cccc(N2C(=O)CCC2=O)c1	-13	/	83	96
CCC(Sc1nnc(-c2cc3occc3n2C)n1-c1ccccc1C)C(=O)Nc1ccc(C)cc1 (stereo not given)	/	99	125	96
CC(C)(C)OC(=O)N1CCC(c2cc(=O)n3[nH]c(-c4ccc(Cl)cc4)cc3n2)CC1	-11	102	104	93
C=CCN(c1ccccc1)S(=O)(=O)c1ccc2c(c1)CC(C)N2C(=O)C1CC1 (stereo not given)	/	98	85	85
Cc1ccc(Nc2nc(C3CC3)cs2)cc1	-23	106	78	74
CCN(CC)CCOC(=O)c1ccc(NC(=O)CSc2cc(=O)n(CC)c3ccccc23)cc1	9	107	98	90
Cc1cc(=O)[nH]c2nnc(SCC(=O)Nc3ccc(OC(F)(F)F)cc3)n12	/	97	107	97
CC1CCN(CCC(=O)Nc2ccccc2F)CC1	-3	/	107	88
O=C(Nc1ccc(F)cc1F)c1cc(S(=O)(=O)N2CCCCC2)c[nH]1	/	102	107	95
O=C(NCCCN1CCOCC1)C1CCN(c2nc3ccccc3n(Cc3ccccc3)c2=O)CC1	-22	103	/	/
COc1cccc(CSc2nc3ccncc3n2Cc2ccc(C(=O)NCc3cccnc3)cc2)c1	-20	108	/	/
Cc1cc(NC(C)c2ccccc2)n2nc(C)c(-c3ccc(F)cc3)c2n1 (stereo not given)	-11	104	/	/
CC(C)CC1COC(c2cccn2Cc2ccccc2Br)=N1 (stereo not given)	-26	102	/	/
N#CC(C#N)=C1c2ccccc2-c2nc(C#N)c(C#N)nc21	-55	98	51	0
CCc1ccc(NC(=O)N2CCOc3ccc(Cl)cc32)cc1	9	106	104	108
Nc1cccnc1Oc1ccc(F)cc1	-9	103	116	90
Cc1cc(NCCC#N)ccc1Cl	-25	/	90	89
Cc1ccc(C(=O)N2CCC(C(N)=O)CC2)cc1-n1nnc2cccnc21	-29	103	/	/
CCOC(=O)c1cc(-c2ccccc2)n(CCCC(=O)Nc2cccc(C)c2C)c1C	/	101	126	101

# Other compounds follow.
molecule	HCMV UL50-53 inh	GIV-Gai inh	Sa growth inh	Sa growth inh second temp
Nc1nnc(N2CCc3ccccc32)s1	-5	101	107	79
CC12COC3(C(N)=O)CC1CCC32C (stereo not given)	-22	/	123	89
CCC(=O)N1c2ccccc2CC1C(=O)NCc1cccc(C)c1 (stereo not given)	/	96	79	90
COc1cccc(NC(=O)C2CCCN(S(=O)(=O)c3cn(C(C)C)cn3)C2)c1 (stereo not given)	/	103	119	101
O=C(NC1CC1)C1CCCN(C(=O)c2cc(-c3ccncc3)n[nH]2)C1 (stereo not given)	-22	104	/	/
CCn1cc(C(=O)NCc2ccc(C)cc2)c(=O)c2cc(S(=O)(=O)N3CCc4ccccc4C3)ccc21	-26	98	96	88
COC(=O)CNC(=O)c1cccnc1Sc1ccc(Cl)cc1	-7	110	102	90
O=C(Nc1c(C(=O)N2CCCC2)oc2ccccc12)C1CCCCC1	-24	106	83	57
COC(=O)c1ccc[nH]c1=S	-20	100	88	66
